Screening data (PubChem)
TRPML1 agonist: human mucolipin-1 channel agonism; AID 624414; Q9GZU1; activation, % (test concentration not listed); 410,000 tested, 0.12% active; TRPML1-expressing cells, Ca2+ dye fluorescence, FDSS; host cell line not named in the record; reference of the full effect not given here; in the data active = activation above about 50%; inconclusive = about 30% to 50%; inactive = below about 30%; further: 0% is about no effect; the text of the record puts the active cut at 80%
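In this qHTS format, compounds were pin-transferred onto Ca8-dye-loaded TRPML1-DL cells induced with Tet overnight, and intracellular Ca2+ fluorescence was recorded kinetically for 110 s after a 10 s baseline. A subsequent 4uM final 54-4 (EC80) addition followed by a second 110 s read served as the antagonist phase.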
D2 agonist: agonists of human D2 dopamine receptor (beta-arrestin); P14416; DiscoveRx PathHunter D2 beta-arrestin, luminescence, 90 min; 100% = 57 uM dopamine signal; activation, % (test concentration not listed); 360,000 tested, 0.084% active; AID 624465; in the data active = activation above about 40%; inconclusive = about 15% to 40%; inactive = below about 15%; further: compound concentration not given in the record; the text of the record calls up to 30% inactive
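Agonist mode: compounds alone added to overnight-plated D2 PathHunter cells for 90 min at 37 C, with 57 uM final dopamine (EC100) defining full response. Beta-arrestin recruitment detected by chemiluminescent reagent, read after 1 h at ambient temperature.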
TRPML1 blocker: human mucolipin-1 channel inhibition | Q9GZU1 | TRPML1-inducible cells, Ca2+ dye fluorescence, FDSS; active compounds read low; inhibition of EC80 agonist-evoked calcium signal | activity change, negative = inhibition, % (test concentration not listed) | 390,000 tested, 0.02% active; in the data active means activity change below about -50%; inconclusive means about -30% to -50%; inactive means above about -30%;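 further: stimulus is agonist 54-4 at its EC80 concentration; on the % scale 0 is the no-effect control and ±100 the full control effect; compound concentration not given in the record; the text of the record puts the active cut at -80%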
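Calcium fluorescence in TRPML1-DL cells induced overnight with Tet: a 110 s read after compound pin addition, then a 110 s antagonist read after challenge with 54-4 at 4 uM final (EC80).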
PINK1 expr mod: PINK1 expression modulation; PINK1 immunofluorescence, high-content cytometry, 24 h; AID 624263; Potency, µM (series often up to 76.6 µM), for the others: at the highest dose activation (PINK1 increase), most hits filed as activators; 410,000 tested, 0.2% active; active = well fitted activation curve with a large enough effect; inconclusive = small, poorly fitted or top-dose-only effect; inactive = flat fitted curve, though single readings scatter; cell line not stated here;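 further: potency means the concentration at half of the fitted maximal effect; % of control where 0% means no effect; nearly all actives have a fitted effect of over 65% in size; a mitochondrial uncoupler was the plate control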
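Cells are seeded, rested 12 hours, then given compound at five concentrations or DMSO for 24 hours. After fixation, blocking and antibody staining, PINK1 amount and mitochondrial localization are scored; CCCP serves as control.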
Six1-Eya2 inh: blocks human Six1 binding to Eya2; Q15475+O00167; AlphaScreen GST-Six1/His-Eya2 binding, biochemical; active compounds read low; control for the full effect not named in the record; activity change, % (concentration not given with the values); 360,000 tested, 0.56% active; in the data active = activity change below about -65%; inconclusive = about -30% to -65%; inactive = above about -30%; further: on the % scale 0 is the no-effect control and ±100 the full control effect
Target sequence (O00167 whole entry, looked up): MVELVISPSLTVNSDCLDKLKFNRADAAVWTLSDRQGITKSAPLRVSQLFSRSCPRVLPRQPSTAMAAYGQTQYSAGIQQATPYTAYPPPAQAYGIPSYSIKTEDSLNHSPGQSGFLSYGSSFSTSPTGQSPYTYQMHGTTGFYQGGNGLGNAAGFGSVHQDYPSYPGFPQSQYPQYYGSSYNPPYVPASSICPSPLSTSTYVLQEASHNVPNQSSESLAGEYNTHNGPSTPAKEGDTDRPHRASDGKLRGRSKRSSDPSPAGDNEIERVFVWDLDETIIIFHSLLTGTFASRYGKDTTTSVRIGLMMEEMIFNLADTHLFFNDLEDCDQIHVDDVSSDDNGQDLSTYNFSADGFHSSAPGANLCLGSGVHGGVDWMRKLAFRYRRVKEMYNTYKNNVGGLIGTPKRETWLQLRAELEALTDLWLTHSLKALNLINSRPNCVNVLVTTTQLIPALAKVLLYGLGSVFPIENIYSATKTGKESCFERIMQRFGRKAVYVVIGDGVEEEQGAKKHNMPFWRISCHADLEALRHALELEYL
Target sequence (Q15475 whole entry, looked up): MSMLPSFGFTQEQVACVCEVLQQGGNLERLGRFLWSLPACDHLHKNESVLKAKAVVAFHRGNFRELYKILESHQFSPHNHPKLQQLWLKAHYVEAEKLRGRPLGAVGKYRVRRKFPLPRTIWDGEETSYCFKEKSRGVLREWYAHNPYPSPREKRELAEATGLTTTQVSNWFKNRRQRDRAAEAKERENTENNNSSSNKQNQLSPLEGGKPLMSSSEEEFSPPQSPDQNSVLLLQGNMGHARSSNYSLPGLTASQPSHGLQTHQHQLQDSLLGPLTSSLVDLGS
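AlphaScreen with GST-Six1 and His-Eya2 (5X mix: 250 nM and 500 nM), glutathione donor and nickel acceptor beads; buffer 50 mM Tris pH 8.0, 300 mM NaCl, 1 mM TCEP; 1 h at 37 C in the dark.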
D2 potentiator: potentiates the human D2 dopamine receptor allosterically | P14416 | DiscoveRx D2 beta-arrestin cells, luminescence, 90 min; 100% = 57 uM dopamine signal | potentiation, % (no concentration beside the values) | 360,000 tested, 0.23% active | AID 624464; active = potentiation of 50% or more; inconclusive = 30% to 50%; inactive = 30% or less;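 further: compound concentration not given in the record; tested on top of an EC20 dose of dopamine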
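PathHunter D2 cells, attached overnight at 37 deg C, received compound in DMSO plus dopamine at EC20 (50 nM final) for 90 min at 37 deg C. Beta-arrestin recruitment was read as luminescence after 1 h with detection reagent at ambient temperature.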
Numbers without * were called inactive; ? = inconclusive; / = no result given; & = joins results of further samples; [ ] = dose if it differs, or a comment. No enrichment for hits. Share with any hit: about 1%.

SMILES | TRPML1 agonist | D2 agonist | TRPML1 blocker | PINK1 expr mod | Six1-Eya2 inh | D2 potentiator
CC(=O)NCCNC(=O)C1Cc2c(-c3ccccc3Oc3ccccc3)ccnc2O1 (stereo unspecified) | -0.7 | -1.2 | / | 0.5% | 9.2 | -5.2
CN(C)S(=O)(=O)c1cccc(NC(=O)CCCC2CCCCC2)c1 | -0.6 | -5.0 | 28.3 | 1.4% | 0.4 | -46.9
COc1ccc(CCNC(=O)c2cc(=O)c3cc(C)ccc3o2)cc1OC | 0.0 | 10.3 | 4.6 | 2.2% | -11.7 | -8.7
CC(=O)c1cc(-c2ccccc2)n(CC(=O)NC2CCCCC2)c1C | 1.6&1.3 | -3.6 | -6.3&2.9 | 3.3%&-1.4% | 1.9 | -2.6
COc1ccc(-c2[nH]ncc2CN2CCN(C(=O)c3ccco3)CC2)cc1F | 1.4 | 4.2 | 18.3 | -1.0% | 0.1 | 1.0
CCOC(=O)c1sc(NC(=O)CSc2n[nH]c(CC)n2)nc1C | -0.1 | 1.7 | -8.9 | -0.1% | 9.6 | -8.2
C=CCn1c(SCc2nc3cc(C(=O)OC)ccc3c(=O)[nH]2)nc2sc(CC)cc2c1=O | -1.6 | -6.3 | 41.8 | -1.5% | -0.1 | 3.3
COc1ccc(-n2nnnc2SCC(=O)Nc2nnc(C)s2)cc1 | 0.3 | -1.4 | -0.5 | -0.6% | 0.0 | -6.4
O=C1CCC/C=C/C[C@H](CC(=O)N(CCO)Cc2ccccc2)C(=O)N[C@@H](Cc2ccccc2)CO1 | -0.7 | -5.9 | -8.9 | 7.8% | 6.6 | -17.7
CC(O)[C@H]1CC[C@H]2[C@@H]3CC[C@H]4C[C@@H](O)CC[C@]4(C)[C@H]3C(=O)C[C@]12C (stereo partly specified) | -0.1 | 1.7 | 3.2 | 0.3% | 4.4 | -40.0
COc1nc(N(C)C)nc(N(C)c2cc(Cl)cc(Cl)c2)n1 | 1.9 | 3.6 | 7.0 | 4.8% | 17.5 | -8.7
CC1CCN(C(=O)CSc2nnc(CNc3ccc(F)cc3)n2Cc2ccco2)CC1 | -0.8 | -2.5 | -1.3 | -1.3% | 0.5 | -17.5
CC(C)CNC(=O)c1ccc(Cl)c(Cl)c1 | -1.5 | -0.5 | -9.6 | -0.5% | 5.1 | -6.6
Cc1nn(CC(=O)NCc2cccc3ccccc23)c(=O)c2ccccc12 | 0.6 | -3.6 | -7.0 | 0.7% | -2.3 | -21.0
Cc1cccc(C)c1Nc1nnc(SCc2nc3ccccc3s2)s1 | -1.7 | -8.3 | -4.1 | 2.7% | -4.8 | 0.3
Cc1nc2ccc(C(=O)Nc3ccc(N(C)C)cc3)cc2s1 | -0.5 | -7.7 | 5.2 | 4.4% | -7.8 | -8.9
COc1ccc(C(=O)Nc2cccc(S(=O)(=O)NC3=NCCC3)c2)cc1OC | -0.5 | 7.9 | -2.3 | 0.8% | -16.4 | -2.8
COc1ccc(C(=O)/C=C/C(=O)N(Cc2ccccc2OC)C(C(=O)NC2CCCCC2)c2ccncc2)c(O)c1 (stereo unspecified) | 1.0 | -0.7 | 24.6 | 2.8% | -29.2 | -12.1
O=C(CNC(=O)c1ccco1)OCC(=O)c1ccc2ccccc2c1 | 1.4 | -3.6 | -6.3 | -0.3% | -0.4 | -20.1
CCN1C(=O)S/C(=C/c2c(OCc3ccc(C(=O)O)cc3)ccc3ccccc23)C1=O | 3.4 | -2.8 | -4.7 | 14.2% | -0.5 | -9.6
Nc1ccc(C2CCCc3nonc32)c2nonc12 (stereo unspecified) | -0.8 | -1.6 | -0.8 | 0.4% | -4.4 | -13.8
CCc1nc2ccc(C(=O)N3CCNC(=O)C3)cn2c1N(C)CCC(C)C | -0.5 | 4.6 | / | -1.2% | 7.9 | -5.2
COC(=O)c1cc(S(=O)(=O)NCCN2CCOCC2)cn1C | -1.1 | -0.7 | 18.3 | 1.5% | 2.1 | -2.6
CCC(CC)NC(=O)CC(c1ccccc1)c1ccccc1 | 2.8 | -2.7 | 18.5 | 0.2% | 3.6 | -3.8
CC1CCCCC12NC(=O)N(CC(=O)NCCc1ccccc1)C2=O (stereo unspecified) | -0.3 | -3.1 | 0.5 | -1.6% | 10.0 | 0.4
CC1=C(C(=O)N2CCOCC2)C(c2cc(C)cs2)NC(=O)N1 (stereo unspecified) | -0.5 | -2.9 | -4.9 | 0.6% | -1.5 | -6.5
COc1ccc(CCNC(=O)COC(=O)Cc2ccccc2F)cc1 | -0.8 | -1.9 | 6.3 | 2.5% | -2.6 | -5.1
CCCCC(=O)Nc1nc2c(s1)COc1ccccc1-2 | 0.3 | -1.4 | 6.7 | 9.2% | -1.6 | -3.8
COC(=O)NNC(=O)C(C)Oc1ccc(Cl)cc1Cl (stereo unspecified) | -0.6 | -4.8 | 2.0 | 5.7%[38.3 µM] | 7.4 | -3.1
COc1ccc(CN2CCN(C(=O)c3ccccc3C(=O)c3ccccc3)CC2)cc1OC | 1.3 | -2.8 | -9.7 | 0.1% | 1.3 | -14.8
O=c1c2ccccc2nnn1-c1ccc(Br)cc1 | 3.4 | -3.8 | 11.7 | 0.5% | 9.8 | -4.7
CCOC(=O)CSC1=C(C#N)C(c2ccccc2Cl)C(C(=O)OC)C(=O)N1 (stereo unspecified) | 2.5 | -2.4 | 0.3 | 0.4% | 0.0 | -4.1
CCOC(=O)/C(N=Nc1ccc2c(c1)OCO2)=C(\C)O | -0.2 | 2.5 | -28.0 | -0.5% | -17.7 | 4.4
CCNC(=O)C1(C)CCCN(C(=O)c2cc(OC)ccc2Br)C1 (stereo unspecified) | -0.8 | -4.5 | / | -0.1% | -0.6 | -2.7
Cc1cc(C)cc(NC(=S)NC2CC3CCCC(C2)N3C2CCCC2)c1 (stereo unspecified) | 0.3 | 4.9 | 20.7 | 0.8% | -2.3 | -9.7
COc1ccc2oc(C(=O)NCCc3ccccc3)c(C)c2c1 | 2.8 | 1.0 | -3.6 | 1.0% | 1.8 | -17.1
COc1cccc(CNC(=O)CN2C(=O)N(c3cccc(Cl)c3)S(=O)(=O)c3ccccc32)c1OC | -0.4 | / | -14.1 | 5.1% | / | /
COc1ccccc1/C=C/c1nc(C#N)c(NCc2ccccc2)o1 | 0.9 | / | -1.9 | 12.2% | / | /
COc1ccc(OCC(=O)Nc2cc(-c3nn4c(C)nnc4s3)ccc2C)cc1 | 1.6 | -4.4 | -9.8 | -4.0% | 6.4 | -1.3
Cn1c(=O)c(Sc2ccc(Cl)cc2)c(O)c2ccccc21 | -0.8 | -4.6 | 13.0 | -0.9% | -6.4 | 1.0
CCOC(=O)c1sc2nc[nH]c(=O)c2c1C | 5.8 | -3.8 | -10.5 | -1.5% | -9.3 | 0.2
c1ccc(-c2nc(N3CCCCCC3)c3ccccc3n2)nc1 | 3.3 | -6.9 | 21.1 | ? | -75.2* | -31.4
CSC(=NS(=O)(=O)c1ccc(C)cc1)SC | 3.0 | -1.0 | -13.2 | 1.0% | 4.3 | -3.3
CC(C)(CC(=O)O)CC(=O)N1CCCN(c2nc3ccc(Cl)cc3s2)CC1 | 0.4 | -9.5 | -6.4 | -0.8% | 18.9 | 8.5
COc1ccccc1N(C)c1cc2c(c3c1ccn3C)C1CCC2C1 (stereo unspecified) | -0.2 | 3.9 | / | 2.0% | ? | 1.1
COc1ccc(CCC(=O)N2CCN(c3ccc(OC)cc3)CC2)cc1 | 1.2 | 0.9 | -8.3 | -1.3% | -7.2 | -12.3
c1ccc(CNc2nc(NCC3CC3)nc3cc(-c4ccccc4)sc23)cc1 | -0.5 | -1.9 | / | -0.7% | 14.9 | -20.4
CC(=O)c1ccc(OCc2ccccc2)c(C)c1O | 0.3 | -3.9 | 8.4 | 0.0% | 28.4 | -5.6
COc1cccc(CNc2nc3cc(-c4cccc(C(F)(F)F)c4)sc3c(=O)n2C)c1 | -0.4 | -1.9 | / | 2.8% | 4.1 | -11.0
CCC(CC)C(=O)NC1CC(=O)N(c2ccc3c(c2)OCCO3)C1 (stereo unspecified) | -0.1 | / | 20.6 | 0.1% | / | /

(next part)
SMILES | TRPML1 agonist | D2 agonist | TRPML1 blocker | PINK1 expr mod | Six1-Eya2 inh | D2 potentiator
CC(=O)N(OCc1ccc(OC(C)C)c(Cl)c1)C(C)=O | / | 2.7 | / | 0.2% | 5.2 | -9.7
CC(C)(C)OC(=O)C[C@@H]1C/C=C\C[C@@H](CC(=O)N(CCO)Cc2ccccc2)C(=O)N[C@H](Cc2ccccc2)COC1=O | 0.1 | -2.4 | -0.3 | -0.3% | 5.0 | -18.6
Cn1c(=O)c2c(SCC(=O)NCC3CCCO3)nc(-c3cccc(F)c3)nc2n(C)c1=O (stereo unspecified) | -0.5 | / | -8.0 | 1.3% | / | /
O=C(COc1ccc2c3c(c(=O)oc2c1)CCCC3)NCC(O)c1ccccc1 (stereo unspecified) | 1.0 | -2.5 | -7.1 | 5.9% | 13.6 | -4.2
Cc1cccc(NC(=S)N2CCCCCC2)c1C | -0.4 | 2.1 | 2.5 | 0.5% | -0.4 | -3.7
COc1ccc(/C=C2/CCc3ccccc3C2=O)cc1OC | 2.9 | 6.0 | 16.6 | 6.3% | 2.4 | ?
Cc1cccc2c(=O)n3c(cc12)-c1[nH]c2ccccc2c1CC3 | 1.2 | 1.5 | 6.8 | ? | 10.4 | -6.2
CCc1nc2c(OCc3cc(Cl)cc(Cl)c3)cccn2c1N(C=O)Cc1ccccc1 | -0.2 | -1.9 | / | 24.9% | -19.8 | -1.0
COc1ccccc1Nc1c2c(nc3ccc(NC(=O)c4cccc(OC)c4OC)cc13)CCCC2 | -0.3 | / | -2.8 | ? | / | /
O=C(O)CCC(=O)N1CCN(Cc2ccc3c(c2)OCO3)CC1 | -0.6 | -4.7 | -13.4 | 0.0% | 3.9 | 0.0
COc1ccc(NC(=O)CN(C)C(=O)/C=C/c2cn(-c3ccccc3)nc2-c2cccs2)cc1 | -0.9 | -4.1 | 11.2 | -0.2% | -14.4 | 13.3
Cn1cc(S(=O)(=O)N2CCOCC2)cc1C(=O)NCCc1ccccc1 | -0.4 | -0.7 | -3.9 | 3.1% | 1.4 | -4.3
COc1ncccc1-c1nnn(-c2ccccc2Br)n1 | 0.3 | 1.1 | 5.6 | 0.6% | -3.5 | -8.7
O=[N+]([O-])c1ccc(N2CCN(S(=O)(=O)c3ccc4ccccc4c3)CC2)cc1NCC1CCCO1 (stereo unspecified) | -0.3 | -2.3 | 1.8 | -0.2% | -8.6 | -0.6

Look-ups from the entries so far:
D2 potentiator with CCc1nc2c(OCc3cc(Cl)cc(Cl)c3)cccn2c1N(C=O)Cc1ccccc1 stands at -1.0
PINK1 expr mod with COc1ncccc1-c1nnn(-c2ccccc2Br)n1 stands at 0.6%
